Sfp inh: qHTS Assay for Inhibitors of Bacillus subtilis Sfp phosphopantetheinyl transferase (PPTase); 4'-phosphopantetheinyl transferase ffp (Bacillus subtilis), Q9F4F7; Biochemical Sfp PPTase activity, qHTS; Potency, µM, inactives show max response, negative = inhibition, hits mostly inhibitors; 310,000 tested, 3.5% active; AID 1490, 2009; active = well fitted inhibition curve with a large enough effect; inconclusive = small, poorly fitted or top-dose-only effect, or another doubt; inactive = no such curve, though single readings can be large or run the other way;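 note: the enzyme is Sfp with the accession as filed and its product quenches rhodamine fluorescence; potency is the fitted concentration of half-maximal effect; 0% = enzyme reaction without inhibitor and -100% = no enzyme wells; top concentration of the series not given in the record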
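Compounds were incubated with enzyme (final 15 nM) for 15 min at room temperature before substrate addition started the reaction. Fluorescence at 525 nm excitation, 598 nm emission was recorded immediately and after 30 minutes.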
D2 agonist: Beta-Arrestin HTS for Positive Allosteric Modulators of the Human D2 Dopamine Receptor: Agonists. D(2) dopamine receptor (Homo sapiens), P14416. DiscoveRx PathHunter D2 beta-arrestin, luminescence, 90 min; 100% = 57 uM dopamine signal. activation, % (no concentration beside the values). 360,000 tested, 0.084% active; in the data active = activation above about 40%; inconclusive = about 15% to 40%; inactive = below about 15%; note: compound concentration not given in the record; the text of the record calls up to 30% inactive
Target sequence (P14416 whole entry, looked up): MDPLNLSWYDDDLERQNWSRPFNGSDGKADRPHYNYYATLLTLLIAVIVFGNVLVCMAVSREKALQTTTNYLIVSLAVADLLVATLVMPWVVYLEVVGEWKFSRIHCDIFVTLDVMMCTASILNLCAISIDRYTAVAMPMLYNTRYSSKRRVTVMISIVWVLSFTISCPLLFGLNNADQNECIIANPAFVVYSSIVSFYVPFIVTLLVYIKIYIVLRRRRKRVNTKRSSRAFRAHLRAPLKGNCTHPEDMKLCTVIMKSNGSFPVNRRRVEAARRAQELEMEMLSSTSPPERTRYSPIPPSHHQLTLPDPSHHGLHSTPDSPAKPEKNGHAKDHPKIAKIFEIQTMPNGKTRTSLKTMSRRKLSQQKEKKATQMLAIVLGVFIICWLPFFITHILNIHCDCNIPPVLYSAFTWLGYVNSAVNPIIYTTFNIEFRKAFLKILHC
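DiscoveRx PathHunter D2 beta-arrestin cells (2,100/well) attached overnight, then compound-stimulated 90 min at 37 C in HBSS/10 mM HEPES/0.1% Tween-20 buffer; beta-galactosidase complementation read by luminescence after 1 h at ambient temperature. Dopamine 57 uM final (EC100) as control.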
gsp antag: qHTS for Antagonists of gsp, the Etiologic Mutation Responsible for Fibrous Dysplasia/McCune-Albright Syndrome: qHTS. gsp-mutant cells, cAMP HTRF, 30 min; control for the full effect not named in the record. Potency, µM (doses to about 76.9 µM), without a hit: at the highest dose activity change, negative = inhibition, hits mostly inhibitors. 340,000 tested, 0.4% active. AID 624288, 2012; active = falling curve of any shape with a large fitted effect; inconclusive = falling curve, mostly with a smaller effect; inactive = flat or rising curve; cell line not stated here;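 note: intracellular cAMP measured with PDE inhibitor Ro 20-1724 present during compound exposure; potency is the fitted concentration of half-maximal effect; % is set by controls: 0 for no effect and ±100 for the full control effect; nearly all actives have a fitted effect of over 65% in size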
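G418-selected cells were plated in DMEM/10% FBS for 16-24 h at 37C, then treated with compounds plus the PDE inhibitor […] (300 uM solution added) for 30 min at 37C. Intracellular cAMP was measured by HTRF after 30 min lysis at room temperature.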
Menin MLL FP FL: qHTS Assay for Inhibitors Targeting the Menin-MLL Interaction in MLL Related Leukemias: Competition With Fluorescein Labeled MLL-derived Peptide | FP activity change, % at 61.4 µM | 290,000 tested, under 10 active | Fluorescence polarization, fluorescein-MLL peptide displacement from menin; inconclusive = falling polarisation curve, or a change in total fluorescence; inactive = total fluorescence flat and polarisation flat or rising; no compound was filed as active; the % refers to the polarisation; negative = inhibition;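 note: % of control where 0% means no effect; inhibitors lower the polarisation; unlabelled MLL peptide was the positive control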
ClpP mod: qHTS Assay for Activators of ClpP | purified B. subtilis ClpP, FRET peptide cleavage, 20 min | ATP-dependent Clp protease proteolytic subunit (Bacillus subtilis (strain 168)), P80244 | Potency, µM (top dose mostly 57.5 µM), for the others: top-dose activity change, negative = active | 340,000 tested, 1.9% active; active = well fitted falling curve with a large enough effect; inconclusive = small, poorly fitted or top-dose-only effect; inactive = no such curve, though single readings can be large or run the other way; note: potency is the fitted concentration of half-maximal effect; the source files actives as falling curves though it sought activators and does not explain the sign; nearly all actives have a fitted effect of over 65% in size; many hits overshoot -100%
Target sequence (P80244 whole entry, looked up): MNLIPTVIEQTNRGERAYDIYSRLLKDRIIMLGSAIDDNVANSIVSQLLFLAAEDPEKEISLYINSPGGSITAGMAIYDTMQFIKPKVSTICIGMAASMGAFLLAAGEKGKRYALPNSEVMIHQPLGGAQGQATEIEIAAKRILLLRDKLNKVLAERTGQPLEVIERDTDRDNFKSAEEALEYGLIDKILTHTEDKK
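FRET quenching reversal measured ClpP activation: 10 microg/mL B. subtilis ClpP at pH 8 with the FRET-FV decapeptide, read at 430 nm after 320 nm excitation. The 20-min minus 0-min signal was scaled between DMSO/no-enzyme wells and ADEP (5.8 microM final).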
gsp agonist: qHTS for Agonist of gsp, the Etiologic Mutation Responsible for Fibrous Dysplasia/McCune-Albright Syndrome: qHTS | gsp mutant cells, cAMP HTRF, 30 min; control for the full effect not named in the record | Potency, µM (top dose mostly 76.9 µM), without a hit: top-dose activation (cAMP increase), most hits filed as activators | 340,000 tested, 0.13% active; active = well fitted activation curve with a large enough effect; inconclusive = small, poorly fitted or top-dose-only effect, or another doubt; inactive = no such curve, though single readings can be large or run the other way; cell line not stated here;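 note: phosphodiesterase inhibitor Ro 20-1724 added with compounds to block cAMP breakdown; potency is the fitted concentration of half-maximal effect; nearly all actives have a fitted effect of over 60% in size; about a fifth of the inactives were tested at one dose only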
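Cells in DMEM/10% FBS with G418 were pretreated with compounds in DMSO plus […] (300 uM stock) for 30 min at 37C. cAMP was measured by HTRF (cAMP-d2 plus anti-cAMP antibody-K) after 30 min at room temperature.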
PINK1 expr mod: A Quantitative High throughput Screen to Identify Chemical Modulators of PINK1 Expression | AID 624263, 2012 | Potency, µM (top dose mostly 76.6 µM), inactives show top-dose activation (PINK1 increase), actives largely listed as activators | 410,000 tested, 0.2% active | PINK1 immunofluorescence, high-content cytometry, 24 h; active = well fitted activation curve with a large enough effect; inconclusive = small, poorly fitted or top-dose-only effect; inactive = flat fitted curve, though single readings scatter; cell line not stated here;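 note: potency is the fitted concentration of half-maximal effect; % of control where 0% means no effect; nearly all actives have a fitted effect of over 65% in size; a mitochondrial uncoupler was the plate control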
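Fluorescence from anti-PINK1 antibody, together with nuclear and cell stains, was scanned on a laser-scanning cytometer. Before staining, stable-line cells were incubated 24 hours with compounds at 5 concentrations; primary antibody 12 h at 10 degrees C.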
Starred values were filed as active, the others as inactive; [ ] = dose if it differs, or a comment.

How did Cc1ccc(NC(=O)CCNC(=O)c2ccco2)cc1 do in these assays?
Sfp inh: -11.4%; D2 agonist: -0.7; gsp antag: 6.3%; Menin MLL FP FL: -1.0; ClpP mod: -6.2%; gsp agonist: 13.7%; PINK1 expr mod: 1.0%

Results for Cc1cc(C(=O)NCCCN2CCN(c3cc(Cl)ccc3C)CC2)n(-c2ccccc2)n1 ?
Sfp inh: 5.8%; D2 agonist: -1.1; gsp antag: -3.1%; Menin MLL FP FL: 1.0; ClpP mod: -1.7%; gsp agonist: 0.7%; PINK1 expr mod: 2.3%

What do the screens show for `CCCCOc1ncnc2c1[nH]c1ccccc12`?
Sfp inh: 4.1%; D2 agonist: 1.4; gsp antag: inconclusive; Menin MLL FP FL: -0.4; ClpP mod: 17.8µM*; gsp agonist: -33.7%[inhibitor]; PINK1 expr mod: -0.1%

Results for CN(C(=O)COc1cccc(Br)c1)C1CCS(=O)(=O)C1 (stereo not drawn) ?
Sfp inh: 16.3%; D2 agonist: -2.9; gsp antag: 2.8%; Menin MLL FP FL: -0.8; ClpP mod: 0.2%; gsp agonist: -1.5%

What do the screens show for `c1cc[n+](CCC[n+]2ccccc2)cc1`?
Sfp inh: 9.3%; D2 agonist: 1.4; gsp antag: 15.4%; Menin MLL FP FL: 3.3; ClpP mod: 0.3%; gsp agonist: -30.2%[inhibitor]; PINK1 expr mod: 1.0%

What do the screens show for `O=C(Nc1ccc2c(c1)OCCO2)C1CCN(S(=O)(=O)c2ccc(Br)s2)CC1`?
Sfp inh: 24.6%; D2 agonist: 2.5; gsp antag: -16.8%; Menin MLL FP FL: 3.8; ClpP mod: -1.5%; gsp agonist: -1.4%; PINK1 expr mod: -2.2%

Results for Cc1nonc1C(=O)N1CCCC(N2CCN(c3ccc(F)cc3)CC2)C1 (stereo not drawn) ?
Sfp inh: 16.8%; D2 agonist: -2.2; gsp antag: -5.8%; ClpP mod: -2.4%; gsp agonist: -10.5%; PINK1 expr mod: -0.3%

What do the screens show for `C=CCN1CCN(C(CCC)c2nnnn2Cc2ccco2)CC1` (stereo not drawn)?
Sfp inh: 0.7%; D2 agonist: -0.4; gsp antag: 10.4%; Menin MLL FP FL: -1.2; gsp agonist: 1.1%; PINK1 expr mod: 3.2%

Results for Cc1ccc(NC2=NCCCCC2)cc1C ?
Sfp inh: 3.2%; D2 agonist: -3.8; gsp antag: 13.4%; Menin MLL FP FL: 4.2; ClpP mod: 1.4%; gsp agonist: 9.3%; PINK1 expr mod: -0.9%

What do the screens show for `Cc1cc(C)c2nc(N(CCN(C)C)C(=O)/C=C/c3cccs3)sc2c1`?
Sfp inh: 89.1µM*; D2 agonist: 3.2; gsp antag: -3.7%; ClpP mod: -2.5%; gsp agonist: 0.7%; PINK1 expr mod: 0.3%

How did CCCN(CCC)CCN1C(=O)C2C(C(=O)Nc3ccc(C)cc3)C3C=CC2(O3)C1C(=O)NC1CCCCC1 (stereo not drawn) do in these assays?
Sfp inh: -0.4%; D2 agonist: -3.3; gsp antag: -1.5%; Menin MLL FP FL: 0.1; gsp agonist: 7.6%[15.4 µM]; PINK1 expr mod: 1.5%

How did CCOC(=O)C1CCN(S(=O)(=O)c2ccc3[nH]c(=O)oc3c2)CC1 do in these assays?
Sfp inh: 4.0%; D2 agonist: -1.9; gsp antag: -10.4%; Menin MLL FP FL: 4.9; ClpP mod: -0.4%; gsp agonist: 11.1%; PINK1 expr mod: 3.3%

How did Cc1ccc(NC(=O)C(C)OC(=O)Cn2cnc3ccccc3c2=O)cc1 (stereo not drawn) do in these assays?
D2 agonist: -1.1; gsp antag: 4.7%; ClpP mod: -11.1%; gsp agonist: -6.0%; PINK1 expr mod: 3.5%

How did CC(C)c1ccc(NC(=O)C(c2ccc3c(c2)OCO3)N2CCCCC2)cc1 (stereo not drawn) do in these assays?
Sfp inh: 13.1%; D2 agonist: -2.8; gsp antag: -15.2%; Menin MLL FP FL: 0.3; ClpP mod: -0.8%; gsp agonist: inconclusive; PINK1 expr mod: inconclusive

Results for COc1ccc(Br)c(C(=O)N2CCN(S(=O)(=O)c3cccs3)CC2)c1 ?
Sfp inh: 8.0%; D2 agonist: -0.3; gsp antag: -1.8%; Menin MLL FP FL: -7.4; ClpP mod: 1.7%; gsp agonist: 6.7%; PINK1 expr mod: 0.3%

What do the screens show for `CCCCC(=O)Nc1nn(CCC)c2nc3ccccc3cc12`?
Sfp inh: 1.5%; D2 agonist: -1.6; gsp antag: 1.5%; Menin MLL FP FL: 1.5; ClpP mod: -24.9%; gsp agonist: 0.7%; PINK1 expr mod: 15.7%

How did Cc1c(-c2ccccc2)[n+](=O)c2c(n1[O-])CCC2 do in these assays?
Sfp inh: 14.0%; D2 agonist: 2.6; gsp antag: 8.5%; Menin MLL FP FL: 0.1; ClpP mod: -1.8%; gsp agonist: 2.7%; PINK1 expr mod: 2.5%

What do the screens show for `COc1ccc(Cn2c(-c3ccc(Br)cc3)c[n+]3ccccc23)cc1`?
Sfp inh: 6.8%; D2 agonist: -0.9; gsp antag: 6.7%; Menin MLL FP FL: 0.9; ClpP mod: -21.0%; gsp agonist: 24.4%; PINK1 expr mod: inconclusive

How did CCc1ccccc1N1CN(Cc2ccco2)CNC1=S do in these assays?
Sfp inh: 8.1%; D2 agonist: -5.0; gsp antag: 2.8%; Menin MLL FP FL: 3.4; ClpP mod: 1.2%; gsp agonist: 0.9%; PINK1 expr mod: 7.9%

Results for CSc1nnc2c3ccccc3c3ccccc3c2n1 ?
Sfp inh: -4.7%; D2 agonist: -1.4; gsp antag: 5.9%; Menin MLL FP FL: 3.2; ClpP mod: 1.4%; gsp agonist: 8.0%; PINK1 expr mod: 4.9%

Results for COc1ccccc1CNC(=O)COc1ccc([N+](=O)[O-])cc1 ?
Sfp inh: -8.0%; D2 agonist: -3.2; gsp antag: 1.8%; Menin MLL FP FL: 3.6; gsp agonist: -3.0%[15.4 µM]; PINK1 expr mod: -0.1%

What do the screens show for `CCCOc1cccc(-c2nn(-c3ccccc3)cc2/C=C(\C#N)C(=O)NCCCn2ccnc2)c1`?
Sfp inh: -20.1%; D2 agonist: -3.0; gsp antag: -17.8%; Menin MLL FP FL: 2.1; ClpP mod: -1.4%; gsp agonist: 2.3%; PINK1 expr mod: 1.4%

Results for Cc1n[nH]c(=O)c2c1nnn2Cc1ccccc1Cl ?
Sfp inh: 15.6%; D2 agonist: -1.4; gsp antag: 6.9%; Menin MLL FP FL: 4.7; ClpP mod: -7.0%; gsp agonist: 5.8%[15.4 µM]; PINK1 expr mod: 2.3%

Results for CCOc1ccccc1NC(=O)CSc1nnc(-c2ccccc2Cl)n1Cc1ccco1 ?
Sfp inh: -16.6%; D2 agonist: -2.6; gsp antag: -21.4%; Menin MLL FP FL: -0.2; ClpP mod: -5.6%; gsp agonist: 7.1%; PINK1 expr mod: 4.2%

Results for COc1ccccc1N(CC(=O)NC(C)(C)C)C(=O)CCC(=O)Nc1nccs1 ?
Sfp inh: 17.9%; D2 agonist: -1.1; gsp antag: 4.1%; Menin MLL FP FL: 0.1; ClpP mod: -0.2%; gsp agonist: -39.8%[inhibitor]; PINK1 expr mod: 0.6%

What do the screens show for `CCOC(=O)C1=C(CCc2ccccc2)NC(=O)NC1c1ccc(Br)cc1` (stereo not drawn)?
Sfp inh: 9.3%; D2 agonist: 0.2; gsp antag: -6.2%; Menin MLL FP FL: 4.2; ClpP mod: -1.8%; PINK1 expr mod: 0.2%

What do the screens show for `Cc1cc(C)n(-c2ccc(C(=O)Nc3ccc(S(=O)(=O)N(C)C)cc3)cc2)n1`?
Sfp inh: -3.2%; D2 agonist: -1.2; gsp antag: -1.2%; ClpP mod: 3.5%; gsp agonist: -40.2%[inhibitor]; PINK1 expr mod: -2.7%

What do the screens show for `CCOC(=O)c1c(N2C(=O)Nc3cc(Cl)c(Cl)cc3N2O)sc2c1CCCCC2`?
Sfp inh: -6.2%; D2 agonist: -1.3; gsp antag: 2.1%; Menin MLL FP FL: -0.1; ClpP mod: 16.3%; gsp agonist: 9.9%; PINK1 expr mod: -0.1%

How did Cn1c(SCC(=O)OC2CCCCC2)nnc1-c1ccc2c(c1)OCO2 do in these assays?
Sfp inh: 25.9%; D2 agonist: -2.0; gsp antag: -15.9%; Menin MLL FP FL: 1.9; ClpP mod: 0.9%; gsp agonist: -2.6%; PINK1 expr mod: inconclusive

What do the screens show for `CCOC(=O)C(C)Oc1ccc2c(-c3cccc([N+](=O)[O-])c3)cc(=O)oc2c1` (stereo not drawn)?
Sfp inh: -6.2%; D2 agonist: -3.9; gsp antag: inconclusive; Menin MLL FP FL: -0.4; ClpP mod: -0.5%; gsp agonist: -2.1%[15.4 µM]; PINK1 expr mod: 8.7%

How did O=C(CNC(=O)c1ccc(Br)o1)NNC(=O)c1ccc(Cl)cc1 do in these assays?
D2 agonist: -5.6; gsp antag: 9.4%; ClpP mod: 22.4µM*; gsp agonist: -21.8%; PINK1 expr mod: -0.5%

What do the screens show for `CCOC(=O)c1cc(-c2ccccc2)sc1NC(=O)CSc1nncs1`?
Sfp inh: -2.9%; D2 agonist: -0.2; gsp antag: inconclusive; Menin MLL FP FL: 7.6; ClpP mod: -6.3%; gsp agonist: -0.4%; PINK1 expr mod: 3.2%

How did COc1ccccc1CCc1nnc(CCC(=O)NCC[C@@H]2C[C@@H]3C=C[C@H]2C3)o1 do in these assays?
Sfp inh: -6.6%; D2 agonist: -3.3; gsp antag: -1.3%; Menin MLL FP FL: 3.8; gsp agonist: -39.7%[inhibitor]; PINK1 expr mod: 6.8%

Results for O=C(NCc1ccccc1)c1cccc(NC(=O)C2CC2)c1 ?
D2 agonist: 0.4; gsp antag: 4.7%; ClpP mod: -0.3%; PINK1 expr mod: -0.2%

Screens from PubChem.

This is a random part of the collection; about 5.1% have a hit in one of these screens.
